Source: PubChem
gsp ag: activates gsp, the McCune-Albright syndrome mutation; Potency, µM (top dose mostly 76.9 µM), for the others: at the top dose activation (cAMP increase), usual class: activators; AID 624287; gsp mutant cells, cAMP HTRF, 30 min; control for the full effect not named in the record; 0.13% of 340,000 active; active = well fitted activation curve with a large enough effect; inconclusive = small, poorly fitted or top-dose-only effect, or another doubt; inactive = no such curve, though single readings can be large or run the other way; cell line not stated here;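 further: phosphodiesterase inhibitor Ro 20-1724 added with compounds to block cAMP breakdown; potency means the concentration at half of the fitted maximal effect; nearly all actives have a fitted effect of over 60% in size; about a fifth of the inactives were tested at one dose only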
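Cells stably selected in G418 were plated at 2000/well, grown 16-24 hr, then given compounds in DMSO with the PDE inhibitor […] (300 uM solution added) for 30 min at 37C; cAMP was read by HTRF.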
TRPML1 blocker: blocks the human TRPML1 channel; 0.02% of 390,000 active; TRPML1-inducible cells, Ca2+ dye fluorescence, FDSS; active compounds read low; inhibition of EC80 agonist-evoked calcium signal; Q9GZU1; activity change, negative = inhibition, % (no concentration beside the values); in the data active means activity change below about -50%; inconclusive means about -30% to -50%; inactive means above about -30%;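 further: stimulus is agonist 54-4 at its EC80 concentration; on the % scale 0 is the no-effect control and ±100 the full control effect; compound concentration not given in the record; the text of the record puts the active cut at -80%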
Target sequence (Q9GZU1 whole entry, looked up): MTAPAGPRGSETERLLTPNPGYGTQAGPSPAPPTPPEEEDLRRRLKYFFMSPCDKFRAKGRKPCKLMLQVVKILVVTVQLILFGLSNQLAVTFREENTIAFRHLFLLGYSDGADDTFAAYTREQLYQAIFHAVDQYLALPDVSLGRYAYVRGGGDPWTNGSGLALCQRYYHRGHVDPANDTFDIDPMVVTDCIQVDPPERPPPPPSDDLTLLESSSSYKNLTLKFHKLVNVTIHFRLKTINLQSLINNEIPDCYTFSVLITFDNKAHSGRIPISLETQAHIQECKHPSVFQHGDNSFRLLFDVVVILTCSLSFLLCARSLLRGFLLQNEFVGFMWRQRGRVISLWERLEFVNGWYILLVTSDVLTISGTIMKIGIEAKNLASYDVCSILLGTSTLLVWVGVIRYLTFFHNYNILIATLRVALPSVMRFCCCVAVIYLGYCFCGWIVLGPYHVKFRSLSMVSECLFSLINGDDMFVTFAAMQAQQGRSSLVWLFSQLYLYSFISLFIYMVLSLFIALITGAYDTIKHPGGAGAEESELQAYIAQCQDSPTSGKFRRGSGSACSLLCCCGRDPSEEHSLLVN
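Tet-induced TRPML1-DL cells loaded with Ca8 no-wash calcium dye were read kinetically on FDSS. Compound addition was followed by EC80 agonist 54-4 (4 uM final); inhibition was read over 110 s.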
Menin MLL FP FL: menin-MLL binding inhibition, fluorescein peptide; Fluorescence polarization, fluorescein-MLL peptide displacement from menin; FP activity change, % at 61.4 µM; 290,000 tested, under 10 active; AID 1766; inconclusive = falling polarisation curve, or a change in total fluorescence; inactive = total fluorescence flat and polarisation flat or rising; no compound was filed as active; the % refers to the polarisation; negative = inhibition;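 further: % of control where 0% means no effect; inhibitors lower the polarisation; unlabelled MLL peptide was the positive control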
ClpP mod: qHTS Assay for Activators of ClpP; AID 651965, 2013; purified B. subtilis ClpP, FRET peptide cleavage, 20 min; 1.9% of 340,000 active; ATP-dependent Clp protease proteolytic subunit (Bacillus subtilis (strain 168)), P80244; Potency, µM (highest dose often 57.5 µM), inactives show at the highest dose activity change, negative = active; active = well fitted falling curve with a large enough effect; inconclusive = small, poorly fitted or top-dose-only effect; inactive = no such curve, though single readings can be large or run the other way; further: potency means the concentration at half of the fitted maximal effect; the source files actives as falling curves though it sought activators and does not explain the sign; nearly all actives have a fitted effect of over 65% in size; many hits overshoot -100%
Target sequence (P80244 whole entry, looked up): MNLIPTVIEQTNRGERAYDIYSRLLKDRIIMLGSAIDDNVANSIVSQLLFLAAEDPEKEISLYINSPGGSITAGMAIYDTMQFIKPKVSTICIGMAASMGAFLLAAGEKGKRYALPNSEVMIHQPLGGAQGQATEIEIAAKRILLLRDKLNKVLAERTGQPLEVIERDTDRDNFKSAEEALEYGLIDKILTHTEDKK
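ClpP 10 microg/mL final, pH 8 Tris/KCl buffer with BSA, glycerol, Tween-20; compound pinned in; FRET-FV substrate; RT 20 min; Ex320/Em430; ΔFRET vs ADEP 5.8 microM, DMSO, no enzyme.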
gsp antag: antagonizes gsp, the McCune-Albright syndrome mutation | AID 624288 | gsp-mutant cells, cAMP HTRF, 30 min; control for the full effect not named in the record | Potency, µM (top dose mostly 76.9 µM), inactives show at the highest dose activity change, negative = inhibition, most hits filed as inhibitors | 0.4% of 340,000 active; active = falling curve of any shape with a large fitted effect; inconclusive = falling curve, mostly with a smaller effect; inactive = flat or rising curve; cell line not stated here;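 further: intracellular cAMP measured with PDE inhibitor Ro 20-1724 present during compound exposure; potency means the concentration at half of the fitted maximal effect; on the % scale 0 is the no-effect control and ±100 the full control effect; nearly all actives have a fitted effect of over 65% in size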
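Cells in G418 medium, seeded 16-24 h, 37C; buffer exchange to DPBS + 1 mM CaCl2, 0.5 mM MgCl2, 0.05% BSA; cpds in DMSO + […] (300 uM stock), 30 min 37C; HTRF cAMP detection.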
TRPML1 ag: human mucolipin-1 channel agonism; Q9GZU1; activation, % (test concentration not listed); 0.12% of 410,000 active; TRPML1-expressing cells, Ca2+ dye fluorescence, FDSS; host cell line not named in the record; reference of the full effect not given here; in the data active = activation above about 50%; inconclusive = about 30% to 50%; inactive = below about 30%; further: 0% is about no effect; the text of the record puts the active cut at 80%
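Agonist activity was taken from a 110 s kinetic Ca2+ dye read on the FDSS after pinning compounds onto TRPML1-DL cells. The cells were seeded at 1,500/well with Tet inducer, incubated about 16 h, then dye-loaded at room temperature.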
* hit, by the source's call; ? = inconclusive; . = not tested or not shown; [ ] = another dose, or the depositor's remark.

Second line of a record – TRPML1 blocker, Menin MLL FP FL, ClpP mod, TRPML1 ag, gsp antag, gsp ag
> O=C(Nc1cccc(F)c1)c1ccc(CSc2ccccc2)o1
  -4, 6.7, ., -1.0, 3%, -18%
> CC(=O)Nc1cccc(-c2ccnc3c2CC(C)(C(=O)Nc2ccc(C(C)C)cc2)O3)c1 (centres undefined)
  10, ., -14%, 0.2, ., .
> Cc1cc(C(=O)N/N=C/c2ccc(-c3ccc([N+](=O)[O-])cc3Cl)o2)n[nH]1
  4, 22, -0.7%, 1.4, ?, 25%
> COc1ccccc1CNC(=O)c1cccn1-c1nnc(N2CCCC2)s1
  0, ., -3.3%, 0.8, ., .
> COc1ccc(NC(=O)[C@@H](NC(=O)c2ccccc2F)C(C)C)cc1S(=O)(=O)N1CCOCC1
  1, 0.4, 34%, -0.8, 4%, -2%[15.4 µM]
> COC(=O)CNC(=O)c1ccccc1C
  3, -4.6, -0.2%, -0.1, 9%, 1%
> COc1ccc(CC(=O)N2N=C(C)CC2(O)C(F)(F)F)cc1 (centres undefined)
  -19, -1.1, 6.7%, ?, 5%, -17%[15.4 µM]
> CCCC(C(=O)n1nc(C)cc1C)C(NS(=O)(=O)c1ccc(C)cc1)c1ccccc1 (centres undefined)
  -23, 0.4, ?, ?, -5%, 9%
> CCOC(=O)C1=C(C)N(c2ccccc2)C(=O)C1
  26, -2.2, -2.7%, -0.3, 2%, -3%
> COc1ccc(-n2c3c(cc(C(=O)Nc4cccc(C)n4)c2=O)C(=O)CC(C)(C)C3)cc1
  -12, -7.7, -0.7%, 0.2, 5%, 36%[15.4 µM]
> Cc1ccc(Cc2cnc(NC(=O)CN3CCOCC3)s2)cc1Cl
  7, 0.5, 0.5%, -0.6, 2%, -38%
> Cc1nn(CC(C)C)c2sc(C(=O)NC3CC(C)(C)NC(C)(C)C3)cc12
  -4, -1.5, ?, 0.2, 10%, 3%
> CCOC(=O)c1cnc2c(C)cc(C)cc2c1Nc1ccccc1OCC
  5, ., 0.7%, -0.4, ., .
> Cc1ccc(N(Cc2cc3ccccc3[nH]c2=O)S(C)(=O)=O)cc1
  -3, 2.8, ., 0.9, 2%, -11%
> COc1cc(S(=O)(=O)Nc2ncn[nH]2)ccc1Cl
  -20, 0.4, -14%, -0.4, 9%, 16%[15.4 µM]
> CN1CCN(c2ccc(S(=O)(=O)N3CCCCC3)cc2NC(=O)c2ccc(F)cc2F)CC1
  -1, 3.0, -2.4%, 0.2, -1%, 4%[15.4 µM]
> Cc1ccc2nc(-c3ccccc3)c(CC(=O)O)c(C(=O)O)c2c1
  10, -5.8, -1.0%, 2.7, 5%, 4%
> CC(C)CCSc1nc2c(c(=O)n(C)c(=O)n2C)n1Cc1ccccc1Cl
  1, ., -10%, -0.1, ., .
> COc1cccc(C(=O)NN2CC(O)=C(c3nc4ccccc4s3)C2=N)c1
  3, -0.1, ., 0.4, -3%, -9%
> NC(=O)c1c(NC(=O)c2ccccc2)sc2c1CCN(Cc1ccccc1)C2
  -3, ?, 9.2%, -0.3, 7%, 9%
> Cc1cccc(N2CCN(C(=O)CSc3ccc4c(c3)OCCO4)CC2)c1C
  31, ., -4.2%, 4.4, ?, -11%
> O=c1[nH]c(SCCOc2ccccc2)nc2ccccc12
  0, 3.2, 5.8%, -0.1, 8%, 8%
> Cc1cccc(NC(=O)COC(=O)c2cc(C)oc2C)c1
  1, -5.3, ., -0.6, -4%, 11%[15.4 µM]
> Fc1ccc(CSc2ccc(-c3ccc4c(c3)OCO4)nn2)cc1
  5, 5.9, 0.3%, 0.3, 12%, -3%[15.4 µM]
> CCOC(=O)C1=C(c2ccccc2)NC(=O)N(C(C)=O)C1c1cccc([N+](=O)[O-])c1 (centres undefined)
  -3, -5.1, ., -0.4, 12%, -18%
> C[C@H](CO)N1C[C@H](C)[C@@H](CN(C)C(=O)Nc2ccnc(N3CCOCC3)c2)OCc2cnnn2CCCC1=O
  2, ., -18%, -0.5, ., -56%
> Cc1ccc2oc(-c3cccc(NC(=O)c4ccc(Br)o4)c3)nc2c1
  -5, -1.2, ?, 1.3, -16%, ?
> CCN(CC)C(=O)Cn1c(=O)n(CCCCCC(=O)NCc2ccccc2Cl)c(=O)c2sccc21
  -12, ., -2.7%, 1.6, ., .
> O=C(Cn1sc2ccccc2c1=O)Nc1ccc(Br)cc1
  6, ., -1.2%, 3.3, ., -37%[inhibitor]
> O=C1C(=O)N(Cc2cccnc2)C(c2cccc([N+](=O)[O-])c2)/C1=C(\O)c1ccc2c(c1)OCCO2 (centres undefined)
  -5, ., 1.0%, 0.4, 8%, ?
> CC(=O)Nc1ccc(N2CCCC2)cc1
  -11, 2.2, -4.4%, -0.4, -15%, 30%
> Cc1cc2oc(C(=O)Nc3ccc(S(N)(=O)=O)cc3)cc(=O)c2cc1C
  6, ., -1.5%, -0.6, ., .
> CC1CC1C(=O)Nc1nc(-c2ccccc2)cs1 (centres undefined)
  6, 6.3, 0.5%, -0.6, -1%, -27%
> O=C(NCCN1CCOCC1)c1cc(Sc2ccc(F)cc2F)nc2ccccc12
  ?, 2.9, -1.1%, -0.2, 13%, 15%
> CN(C(=O)Cc1csc(-c2ccccc2)n1)c1c(N)n(Cc2ccccc2)c(=O)[nH]c1=O
  -2, ., -2.9%, -0.5, 11%, ?
> O=C(Cn1nnc(-c2ccc(F)cc2)n1)NC(=O)NC1CCCCC1
  28, ., -3.6%, 0.3, ., ?
> Cc1nn(C)cc1/C=N/NC(=S)Nc1ccccc1
  -5, 1.7, -0.4%, -0.7, 1%, -57%[inhibitor]
> O=C(O)c1cc2cc(S(=O)(=O)O)ccc2cc1O
  15, ., -2.6%, 0.4, 14%, -17%
> COc1ccc(CCn2c(-c3cc([N+](=O)[O-])cc([N+](=O)[O-])c3)nc3nc4ccccc4nc32)cc1OC
  -11, 4.5, -20%, 0.8, -5%, ?
> Cc1ccc(NCC(=O)N/N=C/c2cc(O)ccc2[N+](=O)[O-])cc1
  -3, -3.3, ., -0.7, -3%, -9%
> CCc1cccc(NC(=O)c2c(C)oc3nc(C)nc(N4CCCC4)c23)c1
  -17, ., 0.4%, 2.1, ., .
> Cc1ccc2c(c1)NC(=O)C(CC(=O)NCCCN1CCN(c3cc(C)ccc3C)CC1)O2 (centres undefined)
  40, -0.1, -2.0%, 1.0, 6%, ?
> COc1cccc(NC(=O)Cn2cc(C(=O)c3ccco3)c3ccccc32)c1
  4, ., -7.7%, 0.5, ., .
> Cc1ccc(S(=O)(=O)c2cc3c(=O)n4cccc(C)c4nc3n(CCc3ccccc3)c2=N)cc1C
  -2, ., -2.8%, 0.0, 9%, 6%
> Cc1[nH]c2ccccc2c1C(=O)C(=O)NCc1ccco1
  9, 2.8, 0.5%, 0.3, -2%, -23%
> Cc1ccc(C(=O)NCC(=O)NCc2cc(=O)n(C)c(=O)n2C)cc1C
  -12, ., -3.9%, -0.1, 10%, -26%
> COc1ccc(N(CC(=O)NCCSC(C)(C)C)S(C)(=O)=O)c(OC)c1
  17, -0.1, -1.4%, 2.1, -7%, 5%
> O=c1[nH]c2ccccc2nc1Cc1ccc([N+](=O)[O-])cc1
  -4, -5.7, ., -0.7, -2%, 3%[15.4 µM]
> Cc1ccc2c(c1)c1c(n2C)C(C(N)=O)CCC1 (centres undefined)
  1, 5.1, ?, -0.2, -13%, 20%
> CCCN(CCC)c1nc(Cl)nc(NCc2ccco2)n1
  16, -1.2, 0.0%, 2.9, -2%, 0%
> COc1ccc(COCC(O)CN2CCN(S(=O)(=O)c3c(F)cccc3F)CC2)cc1OC (centres undefined)
  10, ., 0.5%, 0.9, 0%, 5%
> Cn1c(N2CCN(S(=O)(=O)c3ccc(Cl)cc3)CC2)nc2ccccc21
  -2, -2.0, -0.3%, 0.8, -15%, 17%[15.4 µM]
> O=C(NN=C1CCCCCCCCCCC1)c1cccnc1
  36, 0.8, 2.3%, 2.8, 6%, 3%
> CCOC(=O)C1CCN(C(=O)c2ccccc2NS(=O)(=O)c2ccc(C)cc2)CC1
  -3, ., 1.3%, 0.7, -15%, ?
> O=C(Nc1ccc(Br)cc1F)C1CCN(c2nc3ccccc3[nH]2)CC1
  11, ., 2.3%, 1.6, ., .
> O=C(C1CC1c1ccccc1)N1CCOCC1 (centres undefined)
  -7, -0.5, 0.7%, -0.5, 6%, -9%
> COc1cc2nc(C3CC3)n(NC(=O)c3ccc(F)cc3)c(=O)c2cc1OC
  -4, -1.8, -1.1%, -0.1, 3%, 1%
> CC(=O)Oc1ccc(N(C(C)=O)S(=O)(=O)c2ccc3ccccc3c2)cc1
  21, -3.9, -2.0%, 1.2, -20%, -21%
> CCN(CC)C(=O)Cc1c(OC)ccc2cc(Br)ccc12
  -3, -4.8, 1.7%, 3.1, -4%, ?
> COc1ccc(CCn2nnnc2C(C(C)C)N2CCC(C(N)=O)CC2)cc1OC (centres undefined)
  0, -0.5, 0.3%, 1.2, -8%, -24%

The listing continues:
Second line of a record – TRPML1 blocker, Menin MLL FP FL, ClpP mod, TRPML1 ag, gsp antag, gsp ag
> CC(C)C(OC(=O)c1ccccc1)c1nccc2ccccc12 (centres undefined)
  1, 0.7, -12%, 1.5, -8%, 8%[15.4 µM]
> CCOC(=O)c1c(NC(=O)c2ccn(CC)n2)sc2c1CCCC2
  20, 27, 25µM*, 2.4, 2%, -21%
> O=C(Nc1ccc(S(=O)(=O)N2CCOCC2)cc1)C1CCN(S(=O)(=O)c2ccc(Cl)cc2)CC1
  -15, ., -0.7%, 0.3, -18%, -32%[inhibitor]
> COc1ccccc1/C=C/C(=O)Nc1ccc(S(=O)(=O)Nc2cc(C)on2)cc1
  0, ., -9.9%, 0.0, -8%, -26%
> O=c1oc2cc(OCc3ccc([N+](=O)[O-])cc3)ccc2c2c1CCCC2
  7, 3.6, -6.6%, -0.6, -5%, -20%
> COC(=O)c1c(NC(=O)Cc2ccccc2)sc2c1CCN(C(C)C)C2
  -7, 0.1, -5.7%, 0.9, -5%, 1%
> C=C(C)Cn1c(C)cc(C)c(S(=O)(=O)c2cccc(C)c2)c1=O
  -10, -1.3, ., -0.2, 10%, -2%[15.4 µM]
> N=c1c2c3c(sc2nc2n1CCC2)CCCC3
  14, -0.2, -9.4%, -0.4, 12%, 1%
> COc1nc(=O)n(C2CCCO2)cc1C (centres undefined)
  -11, ., -2.9%, 0.8, 4%, 12%
> COc1ccc(C(=O)/C(C#N)=N/Nc2cccc([N+](=O)[O-])c2)cc1
  -15, -1.4, 0.3%, 0.0, ?, -33%[inhibitor]

Quoted at random: two compounds from above, in no set order.
Second line of a record – TRPML1 blocker, Menin MLL FP FL, ClpP mod, TRPML1 ag, gsp antag, gsp ag
> O=c1oc2cc(OCc3ccc([N+](=O)[O-])cc3)ccc2c2c1CCCC2
  7, 3.6, -6.6%, -0.6, -5%, -20%
> CCOC(=O)c1c(NC(=O)c2ccn(CC)n2)sc2c1CCCC2
  20, 27, 25µM*, 2.4, 2%, -21%
